Rango-impB inh: qHTS Assay for Inhibitors of Rango (Ran-regulated importin-beta cargo) - Importin beta complex formation; 340,000 tested, 0.031% active; Potency, µM (titrated, usually from 92.2 µM), inactives show at the highest dose inhibition of complex formation; Rango CFP/YFP FRET sensor + importin beta, 45 min; active = rising FRET ratio curve, often small or poorly fitted; inconclusive = mostly compound fluorescence or quenching in the first reads; inactive = flat curves in all reads;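 note: potency is the fitted concentration of half-maximal effect; 0% = DMSO wells and 100% = buffer wells lacking importin beta; nearly all actives have a fitted effect of over 15% in size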
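FRET biosensor (snurportin 1 IBB flanked by EYFP and cerulean), 50 nM, with compound 5 min, then 0.125 microM importin beta in PBS, 1 mM DTT, 0.02% Tween-20, 0.1% BSA. CFP/YFP ratio read after 45 min at room temperature; pre-read flags interference.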
GLA inh pH 4.5: qHTS Assay for Inhibitors of Human alpha-Galactosidase at pH 4.5; Alpha-galactosidase A (Homo sapiens), P06280; purified enzyme, 4-MU-alpha-Gal fluorescence, pH 4.5; activity change, negative = inhibition, % at 105 µM; 230,000 tested, under 10 active; inconclusive = small, poorly fitted or top-dose-only inhibition, or a rising curve; inactive = flat fitted curve, though single readings scatter; no compound was filed as active;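 note: 0% = full activity with enzyme and -100% = basal without enzyme; dose as in the result columns while the protocol names 77 µM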
Target sequence (P06280 whole entry, looked up): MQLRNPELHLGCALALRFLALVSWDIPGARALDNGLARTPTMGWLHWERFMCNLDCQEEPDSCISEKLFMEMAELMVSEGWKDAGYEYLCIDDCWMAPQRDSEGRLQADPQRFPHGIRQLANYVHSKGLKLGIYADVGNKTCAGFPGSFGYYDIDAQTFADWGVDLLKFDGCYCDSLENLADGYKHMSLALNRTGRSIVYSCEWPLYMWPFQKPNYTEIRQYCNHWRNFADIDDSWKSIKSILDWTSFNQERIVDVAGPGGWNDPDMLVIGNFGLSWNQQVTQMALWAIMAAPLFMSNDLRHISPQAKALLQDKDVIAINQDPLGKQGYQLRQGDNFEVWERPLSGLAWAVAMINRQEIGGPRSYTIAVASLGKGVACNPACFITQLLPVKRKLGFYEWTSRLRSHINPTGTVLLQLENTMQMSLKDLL
miR-21 FLuc: qHTS Assay for Modulators of miRNAs and/orActivators of miR-21; HeLa miR-21 FLuc reporter, luciferase, 48 h; Potency, µM (top dose mostly 38.3 µM), inactives show top-dose reporter change, positive = more light; 340,000 tested, under 10 active; AID 2288, 2010; active = well fitted rising curve with a large enough effect; inconclusive = small, poorly fitted or top-dose-only effect; inactive = no such curve, though single readings can be large or run the other way;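 note: % of control where 0% means no effect; miR-21 action dims this reporter so a rising signal means less miR-21 action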
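HeLa cells stably expressing CMV-driven firefly luciferase with a downstream miR-21 binding sequence, endogenously expressing miR-21, were treated with titrations (up to about 40uM final) for 48 hours at 37 degree Celsius. Luciferase luminescence was read after lysis.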
Rango release inh: qHTS Assay for Inhibitors of RanGTP induced Rango (Ran-regulated importin-beta cargo) - Importin beta complex dissociation; Snurportin-1 (Homo sapiens) + GTP-binding nuclear protein Ran (Homo sapiens) + Importin …; Biochemical FRET Rango-importin beta, RanGTP-induced dissociation; Potency, µM (titrated, usually from 46.1 µM), inactives show at the top dose activity change, negative = inhibition; 340,000 tested, 0.071% active; AID 540253, 2011; active means falling FRET ratio curve, often poorly fitted, with flat reads before Ran was added; inconclusive means other falling curves, or compound fluorescence or quenching; inactive means flat or rising ratio curve;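 note: potency is the fitted concentration of half-maximal effect; % of control where 0% means no effect; nearly all actives have a fitted effect of over 45% in size; -100% = wells without RanGTP and RCC1; the record marks most hits as doubtful in a second field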
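Rango/importin beta premix (0.1/0.25 uM final), PBS + 1 mM DTT + 0.02% Tween-20 + 0.1% BSA; cpd 5 min RT; FRET pre-read; + RanGTP-RCC1 (0.6 uM Ran, 2 mM GTP, 0.2 uM RCC1); 45 min RT; FRET post-read, ex 430, em 486/530 nm.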
The depositor's hits bear a star; ? = inconclusive; . = not tested or not shown.

Results follow in this order: Rango-impB inh	GLA inh pH 4.5	miR-21 FLuc	Rango release inh
1: COc1ccccc1-c1ocnc1C(=O)N1CCN(S(=O)(=O)c2ccc(NC(C)=O)cc2)CC1
→ -1.1%	.	0%	-15%
2: CC1CCC(CN2CCN=C2N(C)C)CC1 (stereo unspecified)
→ -0.8%	.	.	?
3: Cc1nnc(SCC2=C(C(=O)O)N3C(=O)C(NC(=O)Cn4nc(C)c(Cl)c4C)C3SC2)s1 (stereo unspecified)
→ 2.3%	-3	-3%	1%
4: CC(=O)Nc1ccc(N)cc1
→ -1.7%	.	.	-2%
5: CCN1C(=O)/C(=C2/Sc3ccc(OC)cc3N2C)SC1=Nc1ccc(OC)cc1
→ ?	7	-19%	-14%
6: Cc1cc(O)cc(O)c1C(=O)Cc1cscn1
→ 0.3%	5	4%	2%
7: Cc1ccc(S(=O)(=O)NN2C(=O)/C(=C/c3ccc(C(=O)O)cc3)SC2=S)cc1
→ 0.8%	.	-1%	-7%
8: O=C(O)CCCC(=O)N1N=C(c2ccccc2)CC1c1ccc2c(c1)OCO2 (stereo unspecified)
→ -2.1%	.	-7%	-2%
9: CCCCN1C(=S)NC[C@@H]1Cc1ccccc1
→ -1.2%	1	0%	-14%
10: C/C(CCC(=O)OC[C@H]1O[C@H](C#Cc2ccccc2)C=C[C@@H]1Oc1ccc(C)cc1)=N\O[C@@H](C)CN1CCCCc2nc(C)c(C)cc21
→ .	-2	-14%	.
11: COc1ccccc1C1/C(=C(\O)c2ccc3c(c2)OCCO3)C(=O)C(=O)N1CCCN(C)C (stereo unspecified)
→ .	-2	0%	.
12: COc1cc(C(=O)NCc2nnc(SCC(=O)Nc3cc(C)cc(C)c3)o2)cc(OC)c1OC
→ 0.7%	5	0%	33%
13: O=c1c2ccccc2nc(-c2ccc([N+](=O)[O-])cc2)n1O
→ 4.5%	7	0%	-12%
14: O=c1[nH]c(C2CCN(S(=O)(=O)c3ccccc3)CC2)nc2c1nnn2Cc1ccc2c(c1)OCCO2
→ -0.7%	.	-11%	0%
15: CC(=O)c1ccc(N2CCN(C(=O)C3CCC3)CC2)cc1
→ 6.7%	8	-19%	-13%
16: O=c1c2ccccc2c(C=Nc2ccc(S(=O)(=O)N3CCCCC3)cc2)c(O)n1-c1ccc(Cl)cn1
→ ?	5	0%	-29%
17: Cc1ccc(N2C(=O)C3C4C=CC(C4)C3C2=O)cc1C (stereo unspecified)
→ 7.0%	6	-3%	0%
18: CCN(CC)C(=O)CSc1nc2ccc(NC(=O)CSc3nccn3C)cc2s1
→ 2.9%	1	-2%	-9%
19: Oc1ccc2n[nH]nc2c1
→ -0.5%	-2	-4%	4%
20: CCN(CC)C(=O)Oc1ccc2c(=O)c(-c3ccccc3)coc2c1
→ -3.2%	-1	-17%	16%
21: CCCc1nnc(NC(=O)OCC)s1
→ -1.2%	-1	-1%	-9%
22: CCC1(CC)C(=O)N=C2c3ccccc3C(=O)N21
→ 7.3%	-1	0%	1%
23: CCOC(=O)Cn1nc(/C=C/c2ccccc2)ccc1=O
→ ?	2	-12%	-18%
24: O=C(N/N=C/c1ccc2c(c1)OCO2)c1ccc2ccccc2n1
→ 0.4%	-7	-18%	-4%
25: COc1cc(N2C(=O)C=CC2=O)c(OC)cc1Cl
→ 4.8%	-8	?	2%
26: Cc1ncsc1CCOC(=O)c1cccnc1
→ 7.7%	1	-3%	-1%
27: CCN1C(=O)C2C(c3cccc(F)c3)NC(CC)(C(=O)OC)C2C1=O (stereo unspecified)
→ -0.3%	1	-2%	4%
28: COc1cccc(NC(=O)N(CCCN2CCOCC2)C(C)c2cc3ccccc3o2)c1 (stereo unspecified)
→ -5.8%	0	-7%	-14%
29: COc1ncnc2c1NC1=C(S2)C(=NCCC(=O)O)CC(C)(C)C1
→ 1.2%	-8	-6%	10%
30: COc1ccc(NC(=O)NCc2ccco2)cc1OC
→ 0.3%	12	2%	-15%

Compound profiles, as listed above.
CCCCN1C(=S)NC[C@@H]1Cc1ccccc1 is listed with Rango-impB inh: -1.2%; GLA inh pH 4.5: 1; miR-21 FLuc: 0%; Rango release inh: -14%
Cc1cc(O)cc(O)c1C(=O)Cc1cscn1 is listed with Rango-impB inh: 0.3%; GLA inh pH 4.5: 5; miR-21 FLuc: 4%; Rango release inh: 2%

Later entries
Results follow in this order: Rango-impB inh	GLA inh pH 4.5	miR-21 FLuc	Rango release inh
31: CC(C)CCNC(=O)C1CCN(S(=O)(=O)c2ccc3c(c2)CC(C)N3C(=O)C2CC2)CC1 (stereo unspecified)
→ 8.4%	.	4%	25%
32: COc1ccc(N(CC(=O)N/N=C/c2cccc(OC)c2OC)S(=O)(=O)c2ccccc2)cc1
→ 1.1%	.	0%	-9%
33: Cc1ccc(C)c(N2CCN(C(=O)C3CCCN(S(=O)(=O)c4c(C)[nH]c(=O)[nH]c4=O)C3)CC2)c1 (stereo unspecified)
→ 2.0%	0	-2%	2%
34: C=CCSc1nc(-c2ccc(OC)cc2)c(C#N)c(=O)n1CC=C
→ -2.6%	-23	-11%	-8%
35: CCC(=O)NC(=S)Nc1ccccc1F
→ 3.2%	-2	-7%	-7%
36: Cc1ccccc1CN1N=C(/C=C/c2ccccc2)CCC1=O
→ 3.4%	-7	-1%	3%
37: COC(=O)CSc1nc2ccc(NC(=O)c3ccccc3C(=O)N3CCOCC3)cc2s1
→ 1.7%	-3	-3%	12%
38: N#CC1=C(N)N=C(SCc2ccccc2)C(C(N)=O)C12CCCCC2 (stereo unspecified)
→ 3.7%	-1	8%	-5%
39: COc1ccc(NS(=O)(=O)c2cc(NC(=O)c3nc4nc(C)cc(C)n4n3)ccc2C)cc1
→ ?	3	2%	-3%
40: CCCn1c(SCC(=O)Nc2nonc2C)nnc1-c1ccoc1C
→ 1.1%	0	-2%	4%
41: CSc1nc2ccc(NC(=O)C3=NNC(=O)CC3)cc2s1
→ ?	-11	-31%	-11%
42: c1ccc(CNc2ccc3c(c2)ncn3C2CCCCC2)nc1
→ -4.0%	0	-40%	3%
43: COc1ccc(C2/C=C\CN(S(=O)(=O)c3ccc(C)cc3)CC(=O)N2Cc2ccc(F)cc2)cc1 (stereo unspecified)
→ 0.0%	-14	4%	7%
44: O=C(Cc1cccc2ccccc12)N/N=C1\CCCc2ccccc21
→ 0.0%	0	-2%	-11%
45: CC1CN(C(=O)c2cc(Br)c(Br)s2)CC(C)O1 (stereo unspecified)
→ -2.9%	.	.	-12%
46: COc1ccc(OC)c(C2C(C(=O)c3sc(C)nc3C)=C(O)C(=O)N2CCN2CCOCC2)c1 (stereo unspecified)
→ 0.2%	-8	-7%	-8%
47: CCCCOc1ccc(C(=O)NCc2ccco2)cc1
→ 1.1%	8	-31%	-17%
48: Cc1cc(OCC(=O)Nc2ccc(CN3CCOCC3)cc2)c2c(C)cc(=O)oc2c1
→ 0.1%	.	6%	2%
49: O=C(c1ccsc1)N1CCCC(N2CCN(c3cccc(Cl)c3)CC2)C1 (stereo unspecified)
→ -4.4%	.	0%	-18%
50: CC(C)(C)NC(=O)NC(=O)COC(=O)Cn1c(C(F)(F)F)nc2ccccc21
→ -2.3%	5	2%	10%
51: c1ccc(CSc2nnc(-c3cccs3)n2Cc2ccco2)cc1
→ 0.1%	-8	-24%	-13%
52: CCCc1cc(C(=O)NNC(=S)NCC)c2ccccc2n1
→ 0.5%	4	4%	-8%
53: CCN(CC)CCOC(=O)/C=C/c1ccccc1OC
→ 2.4%	-3	-7%	13%
54: CCC(C)c1ccc(NC(=O)COc2c(F)c(F)c(C(F)(F)F)c(F)c2F)cc1 (stereo unspecified)
→ ?	-28	-4%	-5%
55: COC(=O)c1cc(S(=O)(=O)N2CCN(c3ccc(C(C)=O)cc3)CC2)c[nH]1
→ 0.7%	.	7%	10%
56: NC(=S)Nc1ccc2cc[nH]c2c1
→ 0.4%	4	5%	1%
57: Cc1cc(Br)cc2c1NC(=O)C2(c1c(C)n(C)n(-c2ccccc2)c1=O)c1c(C)n(C)n(-c2ccccc2)c1=O
→ 0.1%	0	-9%	-12%
58: O=C1NC(c2cccs2)C(C(=O)c2ccccc2)C(O)(C(F)(F)F)N1 (stereo unspecified)
→ -1.8%	3	-8%	8%
59: COCCNC(=O)c1c[nH]c2cc(OC)c(OC)cc2c1=O
→ 0.1%	-1	-5%	-6%
60: Cc1c(O)ccc2c(CN3CCOCC3)cc(=O)oc12
→ ?	.	-9%	?

Following part
Results follow in this order: Rango-impB inh	GLA inh pH 4.5	miR-21 FLuc	Rango release inh
61: CC1(C)S/C(=N/N=C/c2ccco2)NC1=O
→ 2.4%	-1	-17%	5%
62: CC(=O)N(Cc1ccc(Br)cc1)c1ccccc1C(=O)O
→ -0.2%	3	0%	-18%
63: O=C(NC1CCCC1)C(c1ccc(F)cc1)N(Cc1ccc(F)cc1)C(=O)CCl (stereo unspecified)
→ 3.8%	11	-2%	-11%
64: CN1CCN(CCCNc2c(C=O)c(=O)[nH]c3ccccc23)CC1
→ -1.4%	.	-5%	13%
65: COC(=O)CN1C(=S)N(c2ccc(OC)cc2)C(=O)/C1=C/c1cccs1
→ ?	-1	-11%	-27%
66: O=C(NCc1ccco1)C(c1ccncc1)N(C(=O)Cn1nnc2ccccc21)c1ccccc1F (stereo unspecified)
→ -4.9%	.	-4%	14%
67: O=S1(=O)CCS(=O)(=O)C1c1ccccc1
→ 1.8%	.	.	1%
68: CCOC(=O)CCCCNC(=O)Nc1ccccc1
→ -1.9%	7	-2%	0%
69: CC(C)(C)c1ccc(S(=O)(=O)NNC(=O)C2CCN(Cc3cccc(F)c3)CC2)cc1
→ -3.7%	-8	-1%	20%
70: COC(=O)C1=NN(c2ccc(Cl)cc2)C2C(=O)N(c3ccccc3OC)C(=O)C12 (stereo unspecified)
→ ?	-7	-3%	?
71: COC(=O)c1cc(-c2ccc(Cl)cc2)n(-c2ccc(S(N)(=O)=O)cc2)n1
→ -2.6%	6	-6%	-17%
72: CCOC(=O)CC1(NC(=O)c2cc(COc3c(F)cccc3F)on2)CCCCC1
→ 0.3%	.	-6%	9%
73: O=C(CCC(=O)N(CC(=O)NC1CCCCC1)Cc1ccccc1)Nc1ccccn1
→ -0.4%	16	0%	-14%
74: CC1(C)CC(NC(=O)c2cc([N+](=O)[O-])cc([N+](=O)[O-])c2)CC(C)(C)N1
→ 1.9%	.	9%	?
75: O=C(CSc1ccc(-c2cccnc2)nn1)Nc1ccccc1C(F)(F)F
→ 3.1%	.	-7%	2%
76: CCOc1ccc(NS(=O)(=O)c2ccc(NC(=S)NC(=O)C(C)C)cc2)cc1
→ 1.1%	-10	8%	-2%
77: COc1ccc(C(=O)NCC(=O)OCC(=O)Nc2cc(OC)ccc2OC)cc1
→ -1.8%	3	0%	16%
78: COc1ccc(Cc2nc3ccc(C(=O)NCCCSC)cc3o2)cc1OC
→ 0.2%	.	-32%	10%
79: CCc1noc(C)c1C(=O)NNC(=O)c1cc(OC)c(OC)c(OC)c1
→ 5.3%	.	.	-22%
80: CC1CC1C(=O)OCC(=O)NCc1ccc(Cl)cc1 (stereo unspecified)
→ 0.6%	-1	-2%	18%
81: CC(=O)Nc1ccc(Nc2nc(C)nc3c2nnn3Cc2ccccc2Cl)cc1
→ 2.8%	.	3%	4%
82: CCOC(=O)C(C)c1n[nH]c(=O)c2ccccc12 (stereo unspecified)
→ ?	-5	1%	22%
83: COc1ccccc1CNC(=O)CN1C(=O)NC(c2ccccc2)(c2ccc(C)c(C)c2)C1=O (stereo unspecified)
→ -0.5%	.	.	-3%
84: COc1ccc(S(=O)(=O)NCC(=O)N(CC2CCCO2)C(C(=O)NC2CCCC2)C(C)C)cc1 (stereo unspecified)
→ 3.1%	.	0%	0%
85: O=C(Nc1ccc2c(c1)OCO2)c1cncc(Br)c1
→ -3.7%	6	-32%	8%
86: Cc1ccc(/C=C2/SC(=O)N(CC(=O)N3CCOCC3)C2=O)s1
→ -0.6%	-9	-11%	3%
87: COc1ccc(-n2nc(C(=O)NCC(=O)NCc3ccc(F)cc3)c3ccccc3c2=O)c(OC)c1
→ 2.3%	-15	-3%	0%

Not all compounds are listed (hit frequency here may not be typical).
